High-throughput results: PubChem, Johns Hopkins Ion Channel Center
KCNQ2 inh: KCNQ2 channel blockers in CHO-K1 cells – cell-based, FluxOR thallium flux, B-score, primary screen (AID 2156). 20 min; active compounds read low; only compounds with negative scores are shown here; some inactives read as strong as hits. B-score at 10 µM. O88943. 310,000 tested, 1.1% active;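 active = fluorescence ratio B-score at most minus 3 library SDs, with starting brightness B-score within 2 library SDs, cut at about -5.5 in these data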
Target sequence (O88943 whole entry, looked up): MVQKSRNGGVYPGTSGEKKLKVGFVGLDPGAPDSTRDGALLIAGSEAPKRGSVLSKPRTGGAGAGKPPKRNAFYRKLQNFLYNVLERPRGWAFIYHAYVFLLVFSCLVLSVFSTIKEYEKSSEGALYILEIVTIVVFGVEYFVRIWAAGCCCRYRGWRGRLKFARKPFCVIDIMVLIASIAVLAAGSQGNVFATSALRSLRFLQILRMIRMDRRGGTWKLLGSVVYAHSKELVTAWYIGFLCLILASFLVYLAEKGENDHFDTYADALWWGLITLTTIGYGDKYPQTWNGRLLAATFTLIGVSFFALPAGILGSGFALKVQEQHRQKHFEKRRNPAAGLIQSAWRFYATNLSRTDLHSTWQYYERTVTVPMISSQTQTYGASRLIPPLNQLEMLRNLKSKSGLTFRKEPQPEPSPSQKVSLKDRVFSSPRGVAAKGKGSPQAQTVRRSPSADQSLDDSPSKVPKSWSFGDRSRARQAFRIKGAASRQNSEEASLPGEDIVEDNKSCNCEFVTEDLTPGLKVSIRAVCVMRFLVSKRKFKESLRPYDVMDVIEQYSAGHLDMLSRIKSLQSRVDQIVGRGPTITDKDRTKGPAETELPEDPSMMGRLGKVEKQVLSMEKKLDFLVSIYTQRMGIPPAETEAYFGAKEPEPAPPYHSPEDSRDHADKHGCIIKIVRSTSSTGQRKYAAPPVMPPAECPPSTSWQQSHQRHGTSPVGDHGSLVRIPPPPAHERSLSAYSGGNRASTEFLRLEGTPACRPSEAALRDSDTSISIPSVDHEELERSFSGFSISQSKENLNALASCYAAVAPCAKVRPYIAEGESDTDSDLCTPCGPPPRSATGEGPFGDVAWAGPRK
KCNQ2 inh baseline: second read-out of KCNQ2 inh, no call of its own (marks repeat the call); B-score; measured here: initial fluorescence intensity artifact check;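 brightness before thallium and not channel activity; 0 = typical well and far values either way flag optical interference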
The depositor's hits bear a star; i = inactive.

SMILES | KCNQ2 inh | KCNQ2 inh baseline
CC(=O)c1c(C)nc(-c2ccccc2)nc1NC(=O)C(C)C | i | -0.7
COc1ccc(NC(=O)CN(C)CC(=O)Nc2cccc(F)c2)cc1Cl | i | 0.68
OCC1(Cc2ccc(F)cc2F)CCCN(CCCc2ccccc2)C1 (stereo not drawn) | i | 0.01
Cc1cc(NC(=O)C(C)SCC(=O)OCC(=O)N(C)c2ccccc2)no1 (stereo not drawn) | i | 0.97
CCCn1c(Cc2ccccc2)n[nH]c1=S | i | -0.63
O=C(COC(=O)Cc1ccc(Cl)cc1)Nc1ccc(OC(F)F)cc1 | i | 1.3
Nc1n[nH]c2cc(=O)n(-c3ccc(Cl)cc3)nc12 | i | -0.45
CCN(CCn1cccn1)Cc1cn[nH]c1-c1cccc2ccccc12 | i | -0.45
COc1ccccc1C(=O)OCC(=O)NC1CCCC1 | i | -0.03
Cc1cc(N2CCOCC2)n2nc(C)c(-c3ccc(Cl)cc3)c2n1 | i | -1.1
CC(C)(C)c1ccc(C(=O)c2c[nH]c(C(=O)NCCc3ccccn3)c2)cc1 | i | 0.12
NS(=O)(=O)c1ccc(NC(=O)CN2CCN(S(=O)(=O)c3ccc(F)cc3)CC2)cc1 | i | 0.87
CCn1c(-c2ccc(N(C)C)cc2)nc2ccccc21 | i | 0.76
CC(C)C(=O)N1CCN(c2ccccc2NC(=O)c2ccc([N+](=O)[O-])o2)CC1 | i | -1.5
CCOc1ccc(C2N(c3ccc(F)cc3)C(=O)C3CCCN32)cc1 (stereo not drawn) | i | 0.58
COc1ccc(NS(=O)(=O)c2c(C)n(C)c(=O)n(C)c2=O)cc1 | i | 0.02
OC(CNCC#Cc1ccccc1)c1ccccc1 (stereo not drawn) | i | 1.5
CCOc1ccc(-c2noc(CCC(=O)NC3CCCC3)n2)cc1OC | i | -0.47
COc1ccc(NC(=O)c2c3c(nc4ccccc24)CCN(Cc2ccccc2)C3)c(OC)c1 | -11* | 1.6*
CC(C)c1ccc(OCC(O)CN2CCN(c3ccccn3)CC2)cc1 (stereo not drawn) | i | 0.88
CC(C)NC(=S)NN=C1CCCCCCCCCCC1 | i | 0.28
COc1ccc(S(=O)(=O)N2CCC(C(=O)NCCC3=CCCCC3)CC2)cc1C | i | 1.3
O=S(=O)(Nc1nc2ccccc2nc1Cl)c1ccccc1 | i | 0.66
Cc1ccccc1CSc1nc(-c2ccccc2)cc(=O)[nH]1 | i | -0.71

Some of the entries so far, with values under each structure.
Every second line gives: KCNQ2 inh | KCNQ2 inh baseline
- O=C(COC(=O)Cc1ccc(Cl)cc1)Nc1ccc(OC(F)F)cc1
→ i | 1.3
- Nc1n[nH]c2cc(=O)n(-c3ccc(Cl)cc3)nc12
→ i | -0.45
- CCN(CCn1cccn1)Cc1cn[nH]c1-c1cccc2ccccc12
→ i | -0.45
- COc1ccccc1C(=O)OCC(=O)NC1CCCC1
→ i | -0.03
- Cc1cc(N2CCOCC2)n2nc(C)c(-c3ccc(Cl)cc3)c2n1
→ i | -1.1
- CC(C)(C)c1ccc(C(=O)c2c[nH]c(C(=O)NCCc3ccccn3)c2)cc1
→ i | 0.12
- NS(=O)(=O)c1ccc(NC(=O)CN2CCN(S(=O)(=O)c3ccc(F)cc3)CC2)cc1
→ i | 0.87
- CCn1c(-c2ccc(N(C)C)cc2)nc2ccccc21
→ i | 0.76
- CC(C)C(=O)N1CCN(c2ccccc2NC(=O)c2ccc([N+](=O)[O-])o2)CC1
→ i | -1.5
- CCOc1ccc(C2N(c3ccc(F)cc3)C(=O)C3CCCN32)cc1 (stereo not drawn)
→ i | 0.58
- COc1ccc(NS(=O)(=O)c2c(C)n(C)c(=O)n(C)c2=O)cc1
→ i | 0.02
- OC(CNCC#Cc1ccccc1)c1ccccc1 (stereo not drawn)
→ i | 1.5
- CCOc1ccc(-c2noc(CCC(=O)NC3CCCC3)n2)cc1OC
→ i | -0.47
- COc1ccc(NC(=O)c2c3c(nc4ccccc24)CCN(Cc2ccccc2)C3)c(OC)c1
→ -11* | 1.6*
- CC(C)c1ccc(OCC(O)CN2CCN(c3ccccn3)CC2)cc1 (stereo not drawn)
→ i | 0.88
- CC(C)NC(=S)NN=C1CCCCCCCCCCC1
→ i | 0.28

(further entries)
SMILES | KCNQ2 inh | KCNQ2 inh baseline
COc1ccc2c(c1)c1ncn(Cc3ccco3)c(=O)c1n2C | i | -0.59
COc1cc2nc(CC(C)C)n(NC(=O)c3ccccc3Br)c(=O)c2cc1OC | i | 1.3
O=C(/C=C/c1ccco1)OCC1CCCN2CCCCC12 (stereo not drawn) | i | 1
CCCCn1nnnc1NCc1cc(OC)c(OC)c(OC)c1 | i | -0.85
Cc1cc(C(=O)CSCCCn2c(=O)[nH]c3ccccc32)c(C)n1C | i | 0.88
CC(O)CNCc1cccc2ccccc12 (stereo not drawn) | i | -2.1
O=C(Nc1ccc([N+](=O)[O-])cc1)N1CCc2ccccc2C1 | i | -0.05
COc1ccc(C)cc1NC(=O)COC(=O)C1CCN(C(=O)c2ccc(Cl)cc2)CC1 | i | -0.45
CNC(=O)Oc1ccc2c(c1)[C@]1(C)CCN(C)C1N2C (stereo partly drawn) | i | 0.03
Cc1ncc([N+](=O)[O-])n1CC(=O)Nc1ccccc1F | i | 0.98
CCOC(=O)C[n+]1c(C)csc1C | i | 2.1
O=C1c2ccccc2C(Nc2ccc3c(c2)OCCO3)N1Cc1ccccc1 (stereo not drawn) | i | -2
COc1ccccc1C(=O)N1CCN(C2CCN(Cc3ccccc3)CC2)CC1 | i | -1.9
Cc1ccc(-c2cc(C(=O)N/N=C/c3ccc(Cl)cc3)n[nH]2)o1 | i | 0.34
COc1ccc(CN(Cc2cccnc2)S(=O)(=O)c2ccc(-n3cnnn3)c(C)c2)cc1OC | i | -0.12
CN1C(=O)c2ccc(C(=O)Nc3ccccc3O)cc2C1=O | i | -0.46
C(=N\N1CCN(C2c3ccccc3-c3ccccc32)CC1)/c1ccncc1 | i | -0.1
CCN1CSC(=S)N(Cc2ccccc2)C1 | i | -2.1
Cc1cccc(NC(=O)CSCC(=O)Nc2ccccc2C(=O)NC2CC2)c1 | i | -2.7
O=C(Nc1cc2c(oc1=O)CCCC2=O)c1ccc(Cl)cc1 | i | -0.49
CC(C(=O)Nc1sc2c(c1C(=O)NCc1ccco1)CCCC2)N1C(=O)c2ccccc2C1=O (stereo not drawn) | i | -0.08
COc1ccccc1N1CCN(C(=O)c2ccc(S(=O)(=O)N3CCCCC3)cc2)CC1 | i | -0.5
COc1ccc(NC(=O)NCc2ccccn2)cc1OC | i | 0.32
O=C(NCC1CCCO1)c1cc2c([nH]c3ccccc32)c(-c2cccc(Br)c2)n1 (stereo not drawn) | -6.4* | -1.9*
COCCCn1c(=O)/c(=C\c2ccc(OC(F)F)c(OC)c2)s/c1=C(/C#N)C(=O)NCCOC | i | 0.04
Nc1ccc(C23CC4CC(CC(CO)(C4)C2)C3)cc1 | i | 0.23
COc1ccc(OC)c(CCNC(=O)CSc2ccsc2[N+](=O)[O-])c1 | i | 1.8
CC(C)(C)OC(=O)NC(=NCCCc1cn(CC(=O)N2CCN(C(=O)OC(C)(C)C)CC2)nn1)NC(=O)OC(C)(C)C | i | 0.05
CCCc1ccc(S(=O)(=O)N(C)S(=O)(=O)c2ccc(F)cc2)cc1 | i | -0.22
C=CCCC(=O)Nc1nc(C)c(-c2csc(Nc3ccccc3OC)n2)s1 | i | -0.98
Cc1ccc2nc(N3CCN(Cc4ccc(F)cc4)C3=O)c(C)cc2c1 | i | 1.5
CC(=O)Nc1c(NC(=O)CC#N)[nH]c2c(c1=O)c(=O)n(C)c(=O)n2C | i | 0.28
COc1ccccc1C1C(C(N)=O)=C(C)Nc2nc(CCCO)nn21 (stereo not drawn) | i | 1.6
COc1ccccc1/C=C(/C(=O)NCCCn1ccnc1)c1ccccc1 | i | -0.5
COC(=O)c1[nH]c2ccccc2c1NC(=O)CN1CCN(C(=O)c2ccco2)CC1 | i | 0.28
C/C(=N\NC(=O)c1ccc(CN2CCOCC2)cc1)c1ccc(NC(=O)c2ccccc2)cc1 | i | 1
O=C(Nc1cccc2c1CCCC2)c1cc([N+](=O)[O-])ccc1Cl | i | -0.53
CCOC(=O)c1cnc(=O)[nH]c1C | i | -0.05
COc1ccccc1CNC(=O)CN1C(=O)NC(C)(c2ccc(C)cc2)C1=O (stereo not drawn) | i | -1.1
O=C1CCC(C(=O)N2CCCCO2)CN1Cc1cccc(F)c1 (stereo not drawn) | i | -1.5
Cc1ccc(O)c(NC(=O)C2CC(c3c(F)cccc3Cl)=NO2)c1 (stereo not drawn) | i | 0.19
CC[n+]1c(/C=C2\Sc3ccccc3N2C)ccc2cccc(C)c21 | i | 0.58
Nc1ccc2c(c1)C/C(=C/c1ccco1)C2=O | i | 10
O=C(COC(=O)Cc1cccc(C(F)(F)F)c1)NC1CC1 | i | 1.6
COc1ccc(NC(C)C(=O)Nc2ccc(C(C)(C)C)cc2)cc1Cl (stereo not drawn) | i | -1.1
CN1C(=O)C(CC(=O)Nc2ccc(F)cc2)N(NC(=O)c2cccc(F)c2)C1=S (stereo not drawn) | i | -0.23
CC(=O)Nc1ccc(NC(=O)C(C)OC(=O)CCCN2C(=O)c3cccc4cccc(c34)C2=O)cc1 (stereo not drawn) | i | -0.42
O=c1c2[nH]c3ccccc3c2ncn1CCCn1ccnc1 | i | 2.9
C/C(CCC(=O)OC[C@H]1O[C@H](C#Cc2ccccc2)C=C[C@@H]1Oc1ccc(C)cc1)=N\OC[C@@H](O)[C@H]1O[C@@H]2OC(C)(C)O[C@@H]2[C@H]1O | i | 1
COc1cc(/C=C2\SC(=S)N(NC(=O)c3cccc(O)c3)C2=O)ccc1O | i | -1.1
CSc1nnc(-c2sc(-c3ccccc3)nc2C)n1C | i | 0.97
CCOc1cccc2cc(-c3cn4cc(C)ccc4n3)c(=O)oc12 | i | 0.01
COc1cccc(-n2sc3c(c2=S)-c2cc(OC)ccc2NC3(C)C)c1 | i | -1.3
CNC(=O)C(NC(=O)Nc1ccc(C)cc1)C(C)(C)C (stereo not drawn) | i | 0.11
CC(C)(CNC(=O)c1cc2ccccc2o1)N1CCOCC1 | i | -0.24
Cc1c(C)n(C)c2ccc(C(=O)NCc3cccs3)cc12 | i | -0.15
Nc1ccn([C@@H]2CS[C@H](CO)O2)c(=O)n1 | i | -0.85
CC(=O)C1=C(O)C(=O)N(c2ccc(O)cc2)C1c1ccc(F)cc1 (stereo not drawn) | i | -0.43
COc1cccc(CNC23CC4CC(CC(C4)C2)C3)c1OCc1ccccc1 | i | -0.03
Cc1ccccc1C(=O)NC(C)C(c1cccs1)N1CCOCC1 (stereo not drawn) | i | -0.73

One compound at a time, from the list above:
Profile of COc1cc(/C=C2\SC(=S)N(NC(=O)c3cccc(O)c3)C2=O)ccc1O → KCNQ2 inh = i; KCNQ2 inh baseline = -1.1
Profile of CC(=O)C1=C(O)C(=O)N(c2ccc(O)cc2)C1c1ccc(F)cc1 (stereo not drawn) → KCNQ2 inh = i; KCNQ2 inh baseline = -0.43

More records:
SMILES | KCNQ2 inh | KCNQ2 inh baseline
C=CCc1ccc(OCCCNC2CCCC2)c(OC)c1 | i | 0.72
Cc1ccc(S(=O)(=O)NC(CC(C)C)C(=O)N2CCC(C)CC2)cc1 (stereo not drawn) | i | -0.33
Cc1cccc(/C=C2\Sc3ccc(C(=O)N4CCC(C(N)=O)CC4)cc3N(C)C2=O)c1 | i | -1.4
CCN(CC)C(C(=O)Nc1ccc(C(C)C)cc1)c1ccc2c(c1)OCO2 (stereo not drawn) | i | 0.18
Cc1ccccc1-n1nnnc1SCCCC(=O)c1ccc(F)cc1 | i | -1.6
CCOC(=O)c1sc(-c2cccc([N+](=O)[O-])c2)cc1N | i | -1.6
Cc1cccc(-n2c(=O)c3c4c(sc3n3c(=S)[nH]nc23)CCC4)c1 | i | 0.17
CCOc1ccc(N(CC(=O)NC2CCCCC2)C(=O)CCC(=O)Nc2nc(C)cs2)cc1 | i | -0.37
CC(C)c1ccc(NC(=O)C(c2ccc3c(c2)OCO3)N2CCC3(CC2)OCCO3)cc1 (stereo not drawn) | i | 1.4
CC(=O)N1c2ccc(S(=O)(=O)N3CCC(C(=O)Nc4cccc(C(F)(F)F)c4)CC3)cc2CC1C (stereo not drawn) | i | -0.01
Cc1ccc(Cn2c(=O)cc(C(=O)O)c3ccccc32)cc1 | i | 2.2
CC(C)(C)OC(=O)N1Cc2ccccc2C[C@H]1C(=O)NCC(=O)NC1CCCCC1 | i | 0.67
COc1ccc(F)cc1C(=O)C1CCCN(C(=O)c2cccc(N(C)C)c2)C1 (stereo not drawn) | i | 0.38
Cc1ccc2c(C)c(C(=O)N(Cc3ccc(F)cc3)C3CCS(=O)(=O)C3)oc2c1 (stereo not drawn) | i | 0.26
C=CCn1c(SCC(=O)NC2CCCC2)nnc1-c1cccnc1 | i | -0.04
CSc1nc2ncc3c(n2n1)CC1c2ccccc2CCN1C3=O (stereo not drawn) | i | -0.02
Cc1cccc(-c2onc3ccc(C(=O)/C=C/N(C)C)cc23)c1 | i | 0.24
CCn1c(C)c(C2=CCN(S(=O)(=O)c3ccccc3)CC2)c2ccccc21 | i | 0.04
CCC(Cc1ccccc1)NS(=O)(=O)c1ccc2c(c1)NC(=O)C(C)S2 (stereo not drawn) | i | -1.9
O=C(NCCO)C(=O)Nc1cc2c3c(c1)CCN3C(=O)CC2 | i | 1.9
COc1ccccc1CNCc1cc(=O)oc2c(C)c(C)ccc12 | i | -2
CCCc1nnc(NC(=O)CCC(=O)N2CCN(Cc3ccc(F)cc3)CC2)s1 | i | 0.11
COc1cc(SC#N)ccc1N=Cc1c(C)[nH]n(-c2ccc(Cl)cc2)c1=O | i | 3.4
O=C(CSc1cn(Cc2ccccc2)c2ccccc12)Nc1nccs1 | i | -0.66
Cc1cc(C(=O)N2CCCc3ccccc32)ccc1[N+](=O)[O-] | i | -0.04
COCCN(C(=O)/C=C/c1cccc([N+](=O)[O-])c1)c1c(N)n(Cc2ccccc2)c(=O)[nH]c1=O | i | 0.01
CCOc1cc2[nH]c(=S)n(Cc3ccc(C(=O)NCCCN(CC)CC)cc3)c(=O)c2cc1OCC | i | -1.2
CSc1ccc(S(=O)(=O)N(CC(=O)NN=C2CCN(C)CC2)c2ccc(C)cc2)cc1 | i | 1.4
COc1ccc(Cl)c(NC(=O)Nc2c(C)n(-c3ccccc3)c(=O)n2C)c1 | i | -0.57

Some of the compounds tested; rates above refer to the full screens.
